# Bioassay records deposited in PubChem BioAssay by several laboratories.
# PKD1 inh: inhibitors of human PKD1 kinase | Q15139 | PKD1 kinase fluorescence polarization assay | inhibition, %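 (about 10 µM by stock and volumes)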 | 0.056% of 200,000 active;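 active = inhibition of 50% or more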;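 also: controls were vehicle for no effect and a reference inhibitor for full effect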
# Target sequence (Q15139 whole entry, looked up): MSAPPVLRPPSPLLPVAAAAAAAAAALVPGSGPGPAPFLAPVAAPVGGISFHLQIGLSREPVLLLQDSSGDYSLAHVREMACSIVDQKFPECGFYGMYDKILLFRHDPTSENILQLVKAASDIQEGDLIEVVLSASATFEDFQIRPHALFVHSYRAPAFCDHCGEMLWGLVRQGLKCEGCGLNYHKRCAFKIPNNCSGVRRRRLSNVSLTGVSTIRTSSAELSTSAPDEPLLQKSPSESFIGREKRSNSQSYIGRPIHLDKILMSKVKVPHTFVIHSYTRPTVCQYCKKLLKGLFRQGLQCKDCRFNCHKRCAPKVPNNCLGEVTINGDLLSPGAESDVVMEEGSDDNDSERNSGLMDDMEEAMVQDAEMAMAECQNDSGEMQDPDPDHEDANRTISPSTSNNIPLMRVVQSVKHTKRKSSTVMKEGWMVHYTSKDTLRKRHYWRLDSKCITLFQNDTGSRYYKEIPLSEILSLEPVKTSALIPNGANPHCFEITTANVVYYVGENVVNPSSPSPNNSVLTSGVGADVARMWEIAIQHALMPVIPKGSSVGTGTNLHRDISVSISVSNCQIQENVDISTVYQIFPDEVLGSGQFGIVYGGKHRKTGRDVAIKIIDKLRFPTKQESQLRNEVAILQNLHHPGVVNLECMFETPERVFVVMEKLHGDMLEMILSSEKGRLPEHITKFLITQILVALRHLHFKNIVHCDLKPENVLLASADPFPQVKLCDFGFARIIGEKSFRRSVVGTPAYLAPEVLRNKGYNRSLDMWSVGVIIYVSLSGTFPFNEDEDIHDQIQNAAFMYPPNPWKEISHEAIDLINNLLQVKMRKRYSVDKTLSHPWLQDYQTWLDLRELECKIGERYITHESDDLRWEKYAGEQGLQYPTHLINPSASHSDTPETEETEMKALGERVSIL
# HSV augment: HSV replication enhancement | AID 1956 | 0.005% of 220,000 active | HSV replication augmentation in cells, fold increase | maximum fold increase;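 active = peak rise of 1.5-fold or more in the series; inconclusive = self-fluorescent or not available for retest; tested in PC3 cells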;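 also: first round at 10 µM; read as green reporter fluorescence; hits show the peak of a series up to 25 µM; 1 = signal of infected wells without compound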
# Insulin prom inh: TRM-6 insulin promoter activity inhibition | TRM-6 cells (human fetal islet line), insulin promoter-eGFP reporter, imaging; reporter expression induced with tamoxifen | inhibition, % at 2 µM | 0.9% of 130,000 active | AID 1273;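 active = inhibition above the mean plus 3 SD, with well images judged a real hit on visual review, cut at about 60% in these data, passing the limit was not always enough; inconclusive = inhibition over the cutoff but images rejected on review; inactive = inhibition not above the cutoff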
# GALR2 ag: activates the human galanin receptor 2 | GALR2-expressing cells, agonist activation read-out | activation, %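 (tested at 5 µM)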 | 0.48% of 140,000 active;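 active = above mean plus 3 SD of all compounds, about 5% in these data, not always enough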;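 also: 0% = vehicle buffer wells and 100% = reference agonist at full effect; tested in CHO reporter cells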
# RGS16-Gao HTS: RGS16-Galphao interaction regulator (human); binding response (% of control), % at 10 µM; O15492+P09471; bead-based flow cytometry RGS16-Galphao binding, fluorescence; actives lie on both sides; 0.38% of 220,000 active;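 active = below 25% or above 175%, edge rows of some plates excepted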;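 also: Galphao activated by GDP with aluminum fluoride before binding; 100% = wells without compound and 0% = beads without RGS; some results beyond the cut were filed as inactive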
# Insulin prom inh cell count: recorded beside Insulin prom inh, whose call it bears; normalized cell count, %; measured here: cell count, toxicity; reference of the scale not given here;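 cells exposed to compound for 48 h; stained nuclei by imaging scaled within each plate; lower means fewer cells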
# HSV augment primary fold: second read-out of HSV augment, no call of its own (marks repeat the call); fold increase; compound at 10 µM; measured here: primary screen fold increase 10 uM; tested in PC3 cells;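 GFP signal in the first replicate; 1 = infected wells without compound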
# An asterisk follows results filed as active; i = inactive; ? = inconclusive; . = not tested or not shown.
# Start of the data: the first 2 entries, to show the layout:
entry	smiles	PKD1 inh	HSV augment	HSV augment primary fold	Insulin prom inh	Insulin prom inh cell count	GALR2 ag	RGS16-Gao HTS
1	CCc1nc2sccc2c(=O)[nH]1	7	i	1.1	.	.	.	106
2	CCOc1ccc(NC(=S)NCc2ccco2)cc1	-10	i	0.96	.	.	.	103

# Main list, repeating the preview:
entry	smiles	PKD1 inh	HSV augment	HSV augment primary fold	Insulin prom inh	Insulin prom inh cell count	GALR2 ag	RGS16-Gao HTS
1	CCc1nc2sccc2c(=O)[nH]1	7	i	1.1	.	.	.	106
2	CCOc1ccc(NC(=S)NCc2ccco2)cc1	-10	i	0.96	.	.	.	103
3	O=S(=O)(N/N=C/c1ccc(N2CCOCC2)cc1)c1ccc(Br)cc1	-6	i	1	.	.	.	101
4	O=C(NCc1ccco1)c1cc2ccccc2o1	-23	i	0.92	-7	154	-3.9	111
5	CCCCOC(=O)C(C)Nc1n[nH]c(=S)[nH]c1=O (centres undefined)	-8	i	0.94	50	82	-3.1	96
6	Cc1ccc(SCC(=O)NC2CC3CCC(C2)N3C)cc1 (centres undefined)	.	i	1.1	.	.	.	98
7	Cc1onc(-c2ccccc2)c1C(=O)Oc1cccnc1	2	i	0.8	15	116	-3.3	104
8	CC(=O)c1ccc(Cc2ccc(C(C)=O)cc2)cc1	-2	i	0.96	-14	125	.	103
9	Cc1ccc(NC(=O)COC(=O)Cc2ccsc2)cc1S(=O)(=O)N(C)C	.	i	0.92	.	.	.	96
10	COc1ccc(C(=O)C2CCCN(S(=O)(=O)c3cccnc3)C2)c(C)c1 (centres undefined)	-7	i	0.85	.	.	.	103
11	Cc1ccc(C)c(N=C2NC(=O)CS2)c1	7	i	0.95	.	.	-1.0	102
12	CC1(C)Cc2nc3nc(SCC(=O)NCc4ccccc4)n(-c4ccccc4)c(=O)c3cc2CO1	-14	i	0.91	-13	145	-2.9	101

# Some of these compounds in order of the GALR2 ag value, descending:
cpd | molecule | PKD1 inh | HSV augment | HSV augment primary fold | GALR2 ag | RGS16-Gao HTS
11 | Cc1ccc(C)c(N=C2NC(=O)CS2)c1 | 7 | i | 0.95 | -1.0 | 102
12 | CC1(C)Cc2nc3nc(SCC(=O)NCc4ccccc4)n(-c4ccccc4)c(=O)c3cc2CO1 | -14 | i | 0.91 | -2.9 | 101
5 | CCCCOC(=O)C(C)Nc1n[nH]c(=S)[nH]c1=O (centres undefined) | -8 | i | 0.94 | -3.1 | 96
7 | Cc1onc(-c2ccccc2)c1C(=O)Oc1cccnc1 | 2 | i | 0.8 | -3.3 | 104
4 | O=C(NCc1ccco1)c1cc2ccccc2o1 | -23 | i | 0.92 | -3.9 | 111

# New compounds follow
entry	smiles	PKD1 inh	HSV augment	HSV augment primary fold	Insulin prom inh	Insulin prom inh cell count	GALR2 ag	RGS16-Gao HTS
13	COc1ccc(C2c3c(ccc4ccccc34)Oc3ncn4nc(-c5ccco5)nc4c32)cc1 (centres undefined)	7	i	1	27	113	-0.1	104
14	CCOP(=O)(OCC)C(Nc1ccccc1)c1cccnc1 (centres undefined)	.	i	0.89	.	.	.	87
15	CCc1ccc(C(=O)CN2C(=O)C(C)N(c3ccc(C)cc3)C2=O)cc1 (centres undefined)	-12	i	0.96	-24	137	-0.5	103
16	CCOC(=O)c1c(CC(C)C)csc1NC(=O)c1ccccc1C(=O)O	.	i	0.99	.	.	.	102
17	O=C(CSc1nnnn1-c1ccc(F)cc1)Nc1nc2ccccc2s1	-6	i	0.97	-23	65	-2.7	100
18	CCCC(=O)Nc1ccc(Cl)c(NC(=O)CC)c1	5	i	1	19	134	-4.7	188
19	Cc1nn(Cc2cccc(F)c2)c(C)c1NC(=O)c1ccc(COc2ccccc2Cl)cc1	-10	i	0.95	30	205	-0.3	110
20	NNC(=O)Cn1nc2n(c1=O)-c1ccccc1SC2	.	i	0.9	.	.	.	105
21	COc1ccc(CCNC(=O)c2c(O)c3c([nH]c2=O)CCCC3)cc1OC	-5	.	.	.	.	-0.8	.
22	COc1ccc(-n2c(SCC(=O)O)nc3sc4c(c3c2=O)CCC4)cc1	-1	?	.	.	.	.	100
23	O=C(Nc1ccccc1)Nc1ccc(Br)c(Cl)c1	-4	i	0.93	16	172	-0.3	99
24	O=C(NNc1c(F)c(F)cc(F)c1F)c1cc2ccccc2oc1=O	-4	i	0.95	.	.	.	101
25	CN(Cc1ccccc1)C(=O)c1nc2ccccn2c1CNCCCOc1cccnc1	-6	i	0.99	.	.	.	102
26	O=C(Nc1ccc(-c2cn3ccccc3n2)cc1)c1ccc(Cl)cc1	14	i	0.9	-19	129	1.6	99
27	CCN(CC)C(C)C(=O)NCC1(c2ccccc2)CCOCC1 (centres undefined)	-10	i	0.89	-88	88	-2.5	102
28	CC(=O)NC1CC2CCCC(C1)N2S(=O)(=O)c1cccc(F)c1 (centres undefined)	-3	i	0.94	.	.	-0.9	101
29	Cc1cc(C)c2ccc(C(=O)O)nc2c1O	17	i	0.99	-12	93	-1.5	79
30	CNC(=S)N1N=C(c2ccccc2)CC1c1ccc(Br)cc1 (centres undefined)	-6	i	0.87	-22	168	-0.6	102
31	CC(=O)c1c(N2CCOCC2)nc(=S)n(-c2ccccc2)c1C	-4	i	0.72	-20	111	-1.9	99
32	CS(=O)(=O)N1CCN(c2ccccc2NC(=O)c2ccco2)CC1	8	i	0.93	29	94	-0.9	103
33	NC(=O)C1(N2CCCCC2)CCN(CC(=O)Nc2ccc(Oc3ccccc3)cc2)CC1	-5	i	0.95	.	.	-1.9	105
34	Cc1cccc(N(CC(=O)Nc2ccccc2F)S(C)(=O)=O)c1	-4	i	0.97	24	106	-0.1	102
35	CCc1nnc(NC(=O)CSc2nnc(-c3ccc(O)cc3)n2C)s1	-3	i	0.97	.	.	.	102
36	CCOC(=O)N/N=C(/C)c1cccc(-n2cnnn2)c1	-12	i	1	-15	128	.	103
37	CC(c1cccs1)N(Cc1ccco1)C(=S)Nc1ccccc1Cl (centres undefined)	-8	i	0.91	-13	125	.	100
38	O=C(Cn1cnc2c(nnn2-c2cccc(Cl)c2)c1=O)N1CCCC1	0	i	1	.	.	-0.7	102
39	CC(=O)Nc1ccc(Oc2cc(NC(C)=O)cc([N+](=O)[O-])c2)cc1	-8	i	0.97	.	.	.	100
40	CN1C(=S)N(c2ccccc2)C(=O)/C1=C/c1cccs1	4	i	0.85	6	62	3.3	106
41	CN1CCN(C(=O)CCc2ncc(C(F)(F)F)cc2Cl)CC1	2	i	0.97	.	.	.	114
42	COC(=O)CC1c2cc(OC)c(OC)cc2CC(=O)c2cc(OC)c(OC)cc21 (centres undefined)	-5	i	1.1	-26	106	-0.4	114
43	NC(=O)NCCN1CCN(c2ncc(C(F)(F)F)cc2Cl)CC1	6	i	0.87	.	.	.	103
44	O=C(c1ccc(Cl)cc1)N(Cc1ccccc1F)N1C(=O)CCCC1=O	-3	i	0.98	.	.	.	104
45	CCNS(=O)(=O)c1ccc2c(c1)n(C)c(=O)n2C	-3	i	0.92	-50	152	-1.6	101
46	CCn1nc(C)c(C2C(C#N)=C(N)OC3=C2C(=O)CC(C)(C)C3)c1C (centres undefined)	4	i	1.1	.	.	-2.5	32
47	Cc1ccc(OCC(=O)Nc2ccc(N3CCN(C(=O)c4ccc(C)cc4)CC3)cc2)cc1	7	i	0.93	-6	77	.	98
48	Cc1cccc2cc(C#N)c(SCC#N)nc12	-4	i	1.2	.	.	.	101

# Compound profiles, from the list above.
# CN1CCN(C(=O)CCc2ncc(C(F)(F)F)cc2Cl)CC1 across the screens: PKD1 inh: 2; HSV augment: i; HSV augment primary fold: 0.97; Insulin prom inh: .; Insulin prom inh cell count: .; GALR2 ag: .; RGS16-Gao HTS: 114
# COC(=O)CC1c2cc(OC)c(OC)cc2CC(=O)c2cc(OC)c(OC)cc21 (centres undefined) across the screens: PKD1 inh: -5; HSV augment: i; HSV augment primary fold: 1.1; Insulin prom inh: -26; Insulin prom inh cell count: 106; GALR2 ag: -0.4; RGS16-Gao HTS: 114

# Remaining list, next part:
entry	smiles	PKD1 inh	HSV augment	HSV augment primary fold	Insulin prom inh	Insulin prom inh cell count	GALR2 ag	RGS16-Gao HTS
49	OC[C@H](O)[C@H](O)[C@@H](O)[C@@H](O)[C@@H]1SC(c2ccccc2)=NN1c1ccccc1	.	i	1	.	.	.	100
50	Cc1ncc(CO)c(/C=N/NC(=O)c2ccccc2Br)c1O	-4	i	1	.	.	-0.2	66
51	Cc1ccc(O)c(C(=O)c2cc(C(=O)NCCc3ccccc3)c(=O)n(CCc3ccccc3)c2)c1	-2	i	0.87	-36	141	0.5	110
52	Cc1ccc(Nc2cc(C)nc3nnnn23)cc1	-3	i	0.84	36	94	-1.1	136
53	CCOc1ccc(CN(CCC#N)C(=S)NC(=O)c2ccccc2)cc1	0	i	0.9	.	.	-0.1	99
54	FC(F)(F)c1cc(-c2ccco2)nc(-n2nnc3ccccc32)n1	-4	i	0.89	.	.	0.6	66
55	Cc1cc(C)cc(NC(=O)CCC(=O)Nc2nnc(C(F)(F)F)s2)c1	.	i	0.79	.	.	.	106
56	CCc1c(C)sc(NC(=O)c2cc(-c3ccc(OC)c(OC)c3)on2)c1C#N	0	i	1	47	109	-2.8	102
57	CCC(C)N1C(=S)SC(C)(C)C1N(O)C(=O)NC1CCCCC1 (centres undefined)	.	i	0.99	.	.	.	98
58	O=C(COC(=O)c1cc(S(=O)(=O)N2CCOCC2)ccc1O)NCCc1ccccc1	1	i	0.99	-19	89	-1.9	113
59	CN1CCN(c2ccccc2NC(=O)c2ccc(-c3ccccc3)cc2)CC1	-2	i	0.78	-20	133	0.8	131
60	CC1=NN(c2nc(-c3ccc(C)cc3)cs2)C(=O)C1N=Nc1cccc(O)c1 (centres undefined)	-5	i	0.89	.	.	.	96
61	CC1CCN(CC(=O)Nc2nn(-c3ccccc3)nc2C(N)=O)CC1	-1	i	1.1	.	.	.	102
62	COc1ccc(-c2nnc(SCc3ncc(-c4ccccc4)o3)o2)cc1	-6	i	0.93	.	.	-1.9	98
63	Cc1noc(C)c1COC(=O)C(c1ccccc1)c1ccccc1	-2	i	0.95	-92	82	.	105
64	O=C(CSc1ccc(-c2cccc([N+](=O)[O-])c2)nn1)N1CCCCCC1	-2	i	0.97	0	119	.	107
65	Cc1ccc(N2C(=O)NC(NC(=O)C(C)(C)C)(C(F)(F)F)C2=O)cc1 (centres undefined)	-4	i	0.94	.	.	-0.4	62
66	COc1ccc(C2Nc3ccccc3C(=O)N2Cc2ccccc2)cc1Cn1nnc2ccccc21 (centres undefined)	0	i	0.7	-23	100	-0.5	102
67	COc1cc([N+](=O)[O-])ccc1NC(=O)Oc1ccc(NC(C)=O)cc1	.	i	0.93	.	.	.	100
68	Cn1c(C(=O)N2CCCC(C(=O)NCc3ccc4c(c3)OCO4)C2)cc2sccc21 (centres undefined)	6	i	0.72	.	.	-2.4	99
69	CN1C(=O)C(O)(c2sc(N)nc2-c2ccccc2)c2ccccc21 (centres undefined)	-10	i	1	-71	100	-1.2	102
70	O=C(CCN1C(=O)C2CC=C(Cl)CC2C1=O)Nc1ccccc1O (centres undefined)	-2	i	1	-6	116	-1.2	98
71	O=c1[nH]n2c(=O)c3c([nH]c2c1N=Nc1cccc(Cl)c1)CCC3	30	i	0.86	-38	94	-0.7	74
72	O=C(NC1CCCCC1)C(c1cccnc1)N(C(=O)c1ccc(Cl)nc1)C1CCCCC1 (centres undefined)	-5	.	.	-192	78	.	102
73	COc1cccc(Nc2nc3ccc(C(=O)c4ccccc4)cc3n3cnnc23)c1	.	i	1	.	.	.	103
74	CCN(c1ccccc1)S(=O)(=O)c1ccc(OC)c(NC(=O)CNCC(C)O)c1 (centres undefined)	10	i	0.94	-9	82	0.1	105
75	Cc1ccc(NC(=O)Cn2c(=O)oc3ccccc32)cc1	-7	i	0.99	.	.	.	104
76	CC1Nc2nc(NC(=O)C(C)(C)C)[nH]c(=O)c2N(C)C1C (centres undefined)	-5	i	0.89	24	109	0.9	102
77	CC1CCC2(CC1)NC(=O)N(Cc1nnc(-c3cccs3)o1)C2=O (centres undefined)	-4	i	1	.	.	.	103
78	Cc1noc(C)c1C(=O)N1CCN(Cc2ccc3c(c2)OCO3)CC1	-7	i	1.1	-37	197	-3.7	84
79	COc1ccc(C2c3c(oc4ccccc4c3=O)C(=O)N2c2ccccn2)cc1OC (centres undefined)	-3	.	.	.	.	.	97
80	O=C(CCc1ccccc1)NNC(=O)c1ccccn1	11	i	0.9	.	.	.	98
81	COc1ccc(C(=O)NNC(=O)C2CCN(S(=O)(=O)c3ccc(C)cc3)CC2)cc1	9	i	1.2	.	.	.	101
82	COc1ccc(N=C2NN=C(c3ccc4c(c3)OCCO4)CS2)cc1	-7	i	0.85	9	115	-2.4	102
